Compound activity from PubChem.
RE007 growth inh – less growth of the S. pombe RE007 Vpr strain; S. pombe RE007 Vpr strain, BacTiter-Glo ATP luminescence, 24 h; control for the full effect not named in the record; Potency, µM (doses to about 92.2 µM), without a hit: top-dose activity change, negative = less growth; 360,000 compounds, 0.21% hits; active = well fitted falling curve with a large enough effect; inconclusive = small, poorly fitted or top-dose-only effect; inactive = no such curve, though single readings can be large or run the other way;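 note: % is set by controls: 0 for no effect and ±100 for the full control effect; nearly all actives have a fitted effect of over 50% in size; the assay follows cell death caused by Vpr and the record does not say whether a fall means rescue or toxicity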
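Fission yeast strain RE007, carrying one chromosomally integrated HIV-1 vpr copy, was seeded at OD 0.01 in PMG+AL medium with 23 nL pinned compound. After 24 h at 30 °C and 99% humidity, viability was read by BacTiter-Glo luminescence.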
2A StopGo – lowers the luciferase signal of an FMDV 2A StopGo reporter; human cells with a luciferase reporter of 2A StopGo recoding; control for the full effect not named in the record; Potency, µM (series often up to 57.9 µM), for inactives: at the top dose signal change, negative = less light; 410,000 compounds, 1.2% hits; active = well fitted falling curve with a large enough effect; inconclusive = small, poorly fitted or top-dose-only effect; inactive = no such curve, though single readings can be large or run the other way; tested in HEK293T cells; note: % is set by controls: 0 for no effect and ±100 for the full control effect; nearly all actives have a fitted effect of over 45% in size; luciferase light after 4 h
SARS PLpro yeast – SARS-CoV PLP inhibition in yeast; 330,000 compounds, 0.19% hits; S. cerevisiae expressing SARS-CoV PLpro, growth rescue; control for the full effect not named in the record; Potency, µM (titrated, usually from 32.9 µM), for the others: top-dose activity, positive = growth rescue; active means well fitted rising curve with a large enough effect; inconclusive means small, poorly fitted or top-dose-only effect; inactive means no such curve, though single readings can be large or run the other way; note: 0% is about no effect; nearly all actives have a fitted effect of over 55% in size; growth read by luminescence after 48 h
Cruzain inh noDet – cruzain (T. cruzi) inhibition without detergent; P25779; purified cruzain, Z-FR-AMC fluorescence, no detergent; Potency, µM, without a hit: max response, negative = inhibition, usual class: inhibitors; 200,000 compounds, 2.3% hits;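 note: plate controls were enzyme without inhibitor for no effect and buffer without enzyme for full effect; nearly all actives have a fitted effect of over 40% in size; top concentration of the series not given in the record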
Target sequence (P25779 123-467 limits assumed): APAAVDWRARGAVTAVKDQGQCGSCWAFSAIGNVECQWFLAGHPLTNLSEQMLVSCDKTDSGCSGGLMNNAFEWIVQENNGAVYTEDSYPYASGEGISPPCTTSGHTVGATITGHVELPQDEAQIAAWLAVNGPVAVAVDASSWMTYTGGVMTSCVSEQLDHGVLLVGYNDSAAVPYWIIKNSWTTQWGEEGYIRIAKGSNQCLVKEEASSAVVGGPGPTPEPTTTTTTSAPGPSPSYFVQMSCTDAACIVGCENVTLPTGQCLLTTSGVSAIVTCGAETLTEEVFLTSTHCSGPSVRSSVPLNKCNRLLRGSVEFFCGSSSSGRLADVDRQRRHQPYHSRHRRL
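Purified cruzain at 1.5 nM, pre-incubated 15 min with compound at room temperature in 100 mM sodium acetate pH 5.5, 5 mM DTT, 0.00005% Triton X-100. Reaction started with 2 uM Z-FR-AMC; AMC fluorescence increase over 60 s gives rate.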
MARV entry inh – Marburg virus entry inhibition | Marburg virus pseudotyped entry inhibition, cell reporter; control for the full effect not named in the record; about a third of the inactives were read at about 46 µM | Potency, µM (series often up to 37.8 µM), inactives show at the top dose activity change, negative = inhibition, hits mostly inhibitors | 300,000 compounds, 1.8% hits | AID 540276; active = well fitted inhibition curve with a large enough effect; inconclusive = small, poorly fitted or top-dose-only effect, or effect the other way; inactive = flat fitted curve, though single readings scatter; tested in HEK293 cells; about a fifth of its hits are not listed in these tables; note: % is set by controls: 0 for no effect and ±100 for the full control effect; luciferase read-out
Cruzain Triton – cruzain (T. cruzi) inhibition with detergent | P25779 | purified cruzain, Z-FR-AMC fluorescence, 0.01% Triton | Potency, µM, without a hit: max response, negative = inhibition, hits mostly inhibitors | 200,000 compounds, 0.43% hits | AID 1478;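 note: plate controls were neutral wells for no effect and buffer without enzyme for full effect; nearly all actives have a fitted effect of over 40% in size; top concentration of the series not given in the record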
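Cruzain (1.5 nM) preincubated 15 min at RT with compound in 100 mM sodium acetate pH 5.5, 5 mM DTT, 0.01% Triton X-100. Reaction started with 2 uM Z-FR-AMC; AMC fluorescence (ex 360/em 450 nm) change over 60 s gave rate.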
LASV entry inh – inhibitors of Lassa virus binding or cell entry; Lassa virus pseudotype entry inhibition, cell reporter; control for the full effect not named in the record; Potency, µM (doses to about 37.9 µM), for inactives: at the highest dose activity change, negative = inhibition, actives largely listed as inhibitors; 300,000 compounds, 1.2% hits; AID 540256; active means well fitted inhibition curve with a large enough effect; inconclusive means small, poorly fitted or top-dose-only effect, or effect the other way; inactive means flat fitted curve, though single readings scatter; tested in HEK293 cells; note: % is set by controls: 0 for no effect and ±100 for the full control effect; nearly all actives have a fitted effect of over 50% in size; luciferase read-out
NS1 inh – blocks influenza NS1 protein function | S. cerevisiae slowed by influenza A NS1, growth recovery by OD600 | Potency, µM (doses to about 46.1 µM), without a hit: at the top dose activity, positive = more growth | 270,000 compounds, 0.4% hits; active means well fitted rising curve with a large enough effect; inconclusive means small, poorly fitted or top-dose-only effect; inactive means no such curve, though single readings can be large or run the other way; note: nearly all actives have a fitted effect of over 50% in size
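In this qHTS, NS1 from influenza A is expressed in budding yeast, where it slows growth. Cells are switched from glucose to 2% galactose medium (pH 6.0, -URA), treated with compound, and growth recovery is read at OD600.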
* marks the source's active call; other numbers are inactive results; ? = inconclusive; / = not tested or not shown; & = joins results of further samples; [ ] = dose if it differs, or a comment. Unless noted, calls come from the whole dose curve; as a rule, active = well fitted curve in the direction sought with a large enough effect; inconclusive = small, poorly fitted or top-dose-only effect, or another doubt; inactive = no such curve, though single readings can be large; an effect the other way counts as inactive or inconclusive. Potency is the fitted concentration of half-maximal effect.

SMILES	RE007 growth inh	2A StopGo	SARS PLpro yeast	Cruzain inh noDet	MARV entry inh	Cruzain Triton	LASV entry inh	NS1 inh
COc1cccc(N=c2oc3c(C)ncc(CO)c3cc2C(=O)Nc2ccccc2OC)c1	/	/	-4.0%	3.1%	/	7.6%	/	8.0%
Cc1cc(C)n(-c2ccc(C(=O)OCC(=O)c3ccc(Br)s3)cc2)n1	-22.2%	4.0%	-2.2%	?	-3.5%[46.1 µM]	-2.8%	-7.6%	-8.7%
Cc1ccc(/C=N/NC(=O)CCCOc2ccc(Cl)cc2Cl)cc1	6.6%	?	-8.5%	2.6%	?	-13.3%	?	-11.6%
CN(C)c1ccc(-c2nc3ccccc3c(=O)[nH]2)cc1	-19.1%	-59.0%	-1.5%	/	/	/	/	-9.6%
COc1ccc(C)cc1N/C(N)=N/c1nc(C)cc(C)n1	22.3%	-9.2%	-0.8%	/	?	/	-19.4%	/
Cn1c(CNC(=O)CNC(=O)c2cccc(Cl)c2)cc(=O)n(C)c1=O	-6.0%	18.3%	-1.1%	/	-19.1%[46.1 µM]	/	7.0%[46.1 µM]	-5.2%
COCCn1c(C)cc(/C=C2/SC(=O)N(C(C)C(=O)OC)C2=O)c1C (stereo not drawn)	2.7%	2.1%	0.4%	/	/	/	/	0.9%
O=C(NCCCN1CCN(c2cccc(Cl)c2)CC1)c1ccc(N2CCCC2=O)cc1	-0.6%	-18.2%	7.2%	6.1%	-18.0%&-18.0%	-1.8%	7.9%	-3.4%
O=C(Nc1cccc(F)c1)c1ccc2c(c1)OCCO2	-6.1%	-15.9%	-0.4%	/	?	/	?	-101.8%
Cc1ccc(/C=C/S(=O)(=O)NCC(=O)OCC(=O)NCc2ccccc2)cc1	-8.5%	-16.5%	0.0%	/	12.0%	/	10.5%	0.3%
CC(C)(C)[C@H]1C=C(C(N)=O)O[C@@H](OCc2ccc(CO)cc2)C1	-3.5%	7.9%	0.9%	/	/	/	/	-0.6%
O=c1oc2ccccc2c(NC(c2ccccc2)c2ccccc2)c1[N+](=O)[O-]	8.9%	-4.5%	5.6%	-10.2%	?	-6.5%	-26.4%	12.5%
Cc1cc2cc(CNC(=O)CCC(=O)O)ccc2[nH]1	10.8%	5.6%	0.4%	1.6%	2.1%	11.0%	0.7%	3.0%
Cc1ccccc1NC(=O)c1nn(C)c2c1CS(=O)(=O)c1ccccc1-2	-9.5%	-23.2%	-4.8%	/	/	/	/	-9.4%
CN(C)CC(=O)Nc1cc(C(F)(F)F)ccc1Cl	1.6%	-16.6%	0.2%	-16.2%	10.4%	4.1%	0.4%	4.2%
CCOc1ccccc1/C=N/NC(=O)CNC(=O)COc1ccccc1	-12.2%	-20.3%	3.1%	/	?	/	13.5%	/
CSC[C@H](NC(=O)COc1cc2c(c3oc(=O)c(C)c(C)c13)CCC(C)(C)O2)C(=O)O	20.3%	1.4%	1.3%	/	19.3%	/	?	2.0%
CCOC(=O)/C(=C/c1ccc(Cl)cc1)NC(=O)c1ccco1	-5.6%	-12.7%	1.0%	3.7%	-5.4%	-3.7%	-0.4%	5.7%
Cc1ccc(/C=C/C(=O)NC(=S)N2CCN(C)CC2)cc1	/	3.4%	9.3%	-14.6%	1.2%	-7.1%	?	10.5%
COc1ccc(C2=NOC3(CC(=O)N(c4ccc(F)cc4)C3=O)C2)cc1 (stereo not drawn)	-1.6%	-5.7%	-0.2%	/	6.8%[46.1 µM]	/	-20.9%[46.1 µM]	4.7%
CCOc1ccccc1C(=O)N[C@H](C(=O)OCc1cc(=O)oc2cc(C)ccc12)C(C)C	16.6%	10.4%	-12.7%	-0.2%	?	-3.8%	-10.3%	15.9%
CC(=O)N1CCc2cc(S(=O)(=O)N3CC(C)CC(C)C3)ccc21 (stereo not drawn)	6.4%	3.6%	20.1%	/	-0.7%[46.1 µM]	/	-3.2%[46.1 µM]	14.6%
Cc1nc(N2CCC(C)CC2)c2nnn(Cc3ccccc3)c2n1	10.0%	0.0%	-95.4%	19.6%	-1.3%	-4.4%	-1.9%	-31.3%
COc1ccc(O)c(C(=O)CC(=O)c2ccccc2)c1	/	/	-22.1%	3.3%	/	-6.8%	/	-167.8%
O=C(CCn1c(=S)[nH]c2ccccc2c1=O)Nc1cccc(Cl)c1	-4.1%	-6.4%	2.6%	/	/	/	/	-0.7%
Cc1ccc(CNC(=O)c2nn(C)c3c2CS(=O)(=O)c2ccccc2-3)cc1	-1.5%	-18.0%&-11.1%	-3.2%	2.1%	/	-3.0%	7.5%[46.1 µM]	2.4%
COc1cc(C2Oc3ccccc3C=C2[N+](=O)[O-])cc(OC)c1OC (stereo not drawn)	4.9%	12.6µM*	-20.8%	/	/	/	/	-128.4%
COCC1CCN(C(=O)c2cc(COc3ccc(OC)c4ccccc34)on2)C1 (stereo not drawn)	-13.4%	21.0%	/	/	14.9%	/	?	/
CCN1CCN(C(=O)C2CCC(CNS(=O)(=O)c3ccc(NC(C)=O)cc3)CC2)CC1 (stereo not drawn)	2.5%	-14.3%	2.4%	/	/	/	/	-1.1%
N#Cc1nc(Cc2cccc3ccccc23)oc1NCc1ccco1	19.3%	?	-10.8%	1.3%	-15.2%	-9.0%	-19.9%	-87.5%
c1ccc2c(N3CCCCCC3)nc(-c3ccncc3)nc2c1	-9.9%	?	-33.5%	4.1%	?	-3.0%	11.7%	-14.1%
COc1ccc(C(c2oc(CO)cc(=O)c2O)c2oc(CO)cc(=O)c2O)cc1OC	-5.1%	2.3%	7.94µM*	/	11.7%[46.1 µM]	/	-2.9%[46.1 µM]	/
CSCC[C@H](NC(=O)C1CCN(S(=O)(=O)c2ccc(C)cc2C)CC1)c1nc2ccccc2[nH]1	-29.4%	-4.6%	0.8%	/	-9.3%	/	?	/
CN(C)S(=O)(=O)c1cccc(-c2nn(-c3ccccc3)cc2/C=C(\C#N)c2nc3ccccc3[nH]2)c1	3.8%	-8.2%	-7.6%	?	?	-3.3%	-8.1%	26.5%
CCOC(=O)c1nnc(-c2ccc(C)cc2)nc1Sc1cccc(Cl)c1	-22.2%	-28.0%	-8.7%	2.3%	?	3.8%	-5.7%	9.0%
Cc1ccc(NC(=O)CCS(=O)(=O)c2ccc3c(c2)NC(=O)C(C)S3)nc1 (stereo not drawn)	-4.6%	-27.2%	-0.8%	/	/	/	/	5.8%
CC(=O)OC[C@H]1O[C@@H](Sc2cccc3cccnc23)[C@H](OC(C)=O)[C@@H](OC(C)=O)[C@@H]1OC(C)=O	6.4%	-23.6%	-0.4%	?	1.4%	-1.8%	14.9%	-4.7%
COc1cc(NC(=O)CCn2c(-c3ccccc3)cc(C(C)=O)c2C)cc(OC)c1	/	-18.0%	/	-1.0%	/	-5.8%	-11.2%[46.1 µM]	/
O=C(COc1ccc(S(=O)(=O)N2CCOCC2)cc1)NCc1ccccc1	5.3%	-0.1%	11.8%	/	-14.0%	/	-1.2%	8.1%
COc1ccccc1CCNC(=O)c1ccc(C)o1	16.9%	2.2%	-3.3%	-4.6%	-27.8%	2.5%	1.8%	-13.9%
O=C(CSc1nc2ccccc2nc1Cc1ccc(Cl)cc1)N1CCCc2ccccc21	/	0.0%	/	-5.1%	/	6.0%	28.6%[46.1 µM]	/
COc1cccc(NC(=O)Nc2ccc3nsnc3c2)c1	-3.1%	/	-16.2%	-16.2%	21.7%	-18.4%	21.6%	-33.2%
O=C(CC1Oc2ccccc2NC1=O)NCc1ccccc1 (stereo not drawn)	2.4%	-26.2%	2.1%	-6.8%	/	1.4%	/	3.7%
COc1ccc(-c2csc(NC(=S)NC(=O)c3cccs3)n2)cc1Br	3.2%	-28.6%	-0.6%	/	-11.0%	/	-25.1%	7.0%
COC(=O)c1ccc(NS(=O)(=O)NC(=O)c2cn(C)c3ccccc23)cc1	0.2%	5.3%	-3.3%	/	/	/	/	1.9%
O=C(NCCC1=CCCCC1)C(=O)NCC(c1ccco1)N1CCN(c2ccccc2F)CC1 (stereo not drawn)	-6.6%	-27.4%	8.2%	7.0%	?	-1.0%	?	-12.3%
CCOC(=O)C(=O)/C(=C\N(C)C)c1onc(-c2c(F)cccc2Cl)c1C(=O)OC	8.0%	-14.4%	6.0%	-0.6%	-8.6%	-3.7%	1.6%	-0.4%
Cc1cc([N+](=O)[O-])nn1CCCC(=O)Nc1cc(Oc2ccc(F)cc2)cc([N+](=O)[O-])c1	-0.5%	-17.2%	13.4%	-10.8%	20.5%	-1.8%	10.4%	19.2%
CC(C)(O)CN(C(=O)c1ccccc1)C1CCCCC1	5.8%	-8.5%	/	/	8.4%	/	-1.0%	/
C=CCNC1=C(Cl)C(=O)c2ccccc2C1=O	20µM*	-14.3%	-12.9%	-0.8%	?	-4.4%	?	-21.4%

(further entries)
SMILES	RE007 growth inh	2A StopGo	SARS PLpro yeast	Cruzain inh noDet	MARV entry inh	Cruzain Triton	LASV entry inh	NS1 inh
COc1cccc(-c2ccc(SCc3ccccn3)nn2)c1	-23.3%	20.2%	-1.0%	/	?	/	?	/
Cc1sc2ncnc(NCC(c3ccco3)N3CCCC3)c2c1C (stereo not drawn)	-16.3%	?	11.7%	4.5%	?	0.7%	-25.0%	1.7%
COC(=O)c1ccc(NC(=O)CN2CCN(c3ccccc3)CC2)cc1	-5.0%	-14.7%	-4.5%	-5.1%	?	8.5%	-11.0%	-20.2%
Cc1ccc(C(=O)NCCCc2ccccc2)c(C)c1	-0.7%	14.5%	-0.8%	/	?	/	?	-5.8%
Cc1oc(-c2cccc(Cl)c2)nc1CN1CCC(C(=O)NCC2CCCO2)CC1 (stereo not drawn)	-5.0%[3.69 µM]	-10.3%	2.6%	-6.1%	1.0%	7.3%	4.8%	4.6%
CC(=O)Nc1ccc(S(=O)(=O)NNC(=O)CCc2ccccc2)cc1	2.1%	30.5%	0.1%	/	6.7%[46.1 µM]	/	-18.0%[46.1 µM]	21.0%
Cc1cc(=O)n2nc(N3CCC(C(=O)Nc4ccc(Br)cc4F)CC3)sc2n1	/	-4.8%	/	-1.2%	?	-4.9%	-3.6%[46.1 µM]	/
